# Mtb betalactam: beta-lactam sensitization of Mtb H37Rv; 0.27% of 330,000 active; AID 434955; inhibition, % at 25 µM; M. tuberculosis H37Rv growth with meropenem, percent inhibition; hits of this screen are not shown here;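 active = about 74% or more and at least 40 points above the plate without the antibiotic, then above 30% in a dose series; inconclusive = first-round hits that could not be retested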;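 note: growth measured after seven days incubation then overnight dye step; 0% = bacteria only wells and 100% = bacteria with antibiotic; twin plates without the antibiotic show which effects depend on it; some results filed as inactive read as strong as hits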
# Arbovirus inh: antivirals against arbovirus infection. arbovirus infection cell-based antiviral screen. inhibition, % at 10 µM. 0.37% of 200,000 active. AID 1251;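 active = inhibition from about 30%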;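 note: bluetongue infection of BSR cells; cell survival read as ATP light after 72 h; 0% = infected wells without compound and 100% = uninfected wells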
# RecA intein inh: blocks M. tuberculosis RecA intein splicing | inhibition, %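 (about 9 µM by stock and volumes)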 | cell-free RecA intein splicing, fluorescence | AID 2221 | 0.75% of 290,000 active; in the data active = inhibition above about 30%; inconclusive = no clear call, values can overlap the other calls;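 note: 0% = vehicle wells and 100% = reference inhibitor control wells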
# Target sequence (P9WHJ3 whole entry, looked up): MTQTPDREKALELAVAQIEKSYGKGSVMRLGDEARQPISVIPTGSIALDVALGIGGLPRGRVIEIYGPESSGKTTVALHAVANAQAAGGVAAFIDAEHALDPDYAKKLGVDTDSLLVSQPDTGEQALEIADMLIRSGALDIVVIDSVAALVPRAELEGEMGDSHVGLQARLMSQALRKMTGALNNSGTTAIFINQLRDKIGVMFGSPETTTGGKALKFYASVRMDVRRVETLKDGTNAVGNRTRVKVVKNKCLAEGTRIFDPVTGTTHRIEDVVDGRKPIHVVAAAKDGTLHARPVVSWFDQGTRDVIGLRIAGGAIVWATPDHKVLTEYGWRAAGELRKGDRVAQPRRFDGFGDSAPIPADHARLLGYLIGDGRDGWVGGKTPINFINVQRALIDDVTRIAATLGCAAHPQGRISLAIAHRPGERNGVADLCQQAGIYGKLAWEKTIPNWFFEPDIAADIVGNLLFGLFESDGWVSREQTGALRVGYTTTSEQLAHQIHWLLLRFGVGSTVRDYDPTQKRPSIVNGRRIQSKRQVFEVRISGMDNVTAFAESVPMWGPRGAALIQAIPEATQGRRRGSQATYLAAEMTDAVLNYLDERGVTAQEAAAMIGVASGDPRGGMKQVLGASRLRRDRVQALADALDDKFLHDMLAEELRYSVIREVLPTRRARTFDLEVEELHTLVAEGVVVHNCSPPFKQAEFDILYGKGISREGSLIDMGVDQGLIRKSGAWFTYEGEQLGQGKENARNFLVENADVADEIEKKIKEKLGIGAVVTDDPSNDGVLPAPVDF
# Mtb growth: M. tuberculosis H37Rv growth inhibitors, H37Rv strain (AID 1626); inhibition, % at 10 µM, or IC50 in µM where a hit was titrated; 0.95% of 220,000 active; M. tuberculosis H37Rv growth inhibition; higher % means a stronger effect;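 active = confirmed in a dose series; inconclusive = inhibition above 80% but not taken into the dose series; inactive = below 80% or under 30% at every dose of the series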;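 note: bacteria incubated seven days before Alamar blue readout; 0% = bacteria only wells and 100% = bacteria with antibiotic wells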
# YopH PTP inh: blocks Yersinia enterocolitica YopH tyrosine phosphatase. inhibition, %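 (about 10 µM by stock and volumes)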. AID 898. 0.16% of 140,000 active. fluorescence Ex485/Em525;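 active = inhibition of 50% or more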;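 note: controls were vehicle for no effect and minimum signal wells for full effect; inactives centre near -20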
# Arbovirus inh repeat: recorded beside Arbovirus inh, whose call it bears; inhibition, %; measured here: 10K subset replicate screen; many hits read low in the repeat;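 first of two repeat runs on a subset; 0% = infected and 100% = uninfected wells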
# The depositor's hits bear a star; ? = inconclusive; / = not tested or not shown. These rows are one share of the data, so the mix of outcomes need not match the whole.
SMILES,Mtb betalactam,Arbovirus inh,RecA intein inh,Mtb growth,YopH PTP inh,others
O=C(CSc1nnc(NC(=O)C2CC(=O)N(c3ccccc3)C2)s1)NCc1ccco1 (centres undefined),4,/,1.4,/,/,
O=[N+]([O-])c1nn(-c2ccc(Cl)cc2)n(O)c1=NCc1ccccc1Cl,93,0,-9.4,0%,/,
Cc1nn(Cc2ccccc2)c2c1C(c1ccccc1)C(C#N)=C(N)O2 (centres undefined),-3,-10,66*,1%,-30,
CCOC(=O)N1CCN(C(=O)c2ccc(-n3c(=S)[nH]c4ccccc4c3=O)cc2)CC1,2,-1,/,-7%,-27,
Cc1ccc(C(=O)O)cc1NC(=S)NC(=O)C(c1ccccc1)c1ccccc1,3,2,3.1,-8%,-21,
Cn1cnnc1SCCn1c(N2CCCCC2)nc2c1c(=O)[nH]c(=O)n2C,-2,9,0.1,-1%,0,
COC(=O)c1cccc(C23CC4(C2)[C@H](CN(Cc2ccc(C(F)(F)F)cc2)[C@@H]4c2ccccc2)C3c2ccc(Cl)nc2)c1 (some centres undefined),0,/,4.4,4%,/,
Cc1ccc(-c2nc3ccccn3c2NCc2ccc3c(c2)OCO3)cc1,0,6,-4.3,2%,-3,
COc1cc(-c2cc(C(=O)O)c3c(OC)c(OC)c(OC)cc3n2)ccc1O,2,18,-4.2,-3%,-49,
O=C(COC(=O)CCc1nc2ccccc2s1)Nc1ccc(Cl)cn1,2,5,1.5,1%,-9,
Cc1cccc(C)c1OCc1cc(C(=O)N2CCC(c3ccncc3)CC2)no1,83,/,4.8,/,/,
Cc1cc(C)c(NC(=O)CSc2nc3ccncc3[nH]2)c(C)c1,-1,/,-0.2,/,/,
CN1CCN(C2CC(=O)N(CCc3ccccc3)C2=O)CC1 (centres undefined),-6,/,0.1,-4%,/,
C=CCN(C(=O)c1oc2c(Cl)cc(C)cc2c1C)C1CCS(=O)(=O)C1 (centres undefined),3,/,1.9,/,/,
O=C(Nc1ccccc1)c1ccc(-c2ccc(Br)cc2)o1,99,-2,19,?,-29,
COc1ccc(OC)c(CN2CCN(C(=O)CN3C(=O)NC4(CCCC4)C3=O)CC2)c1,-8,/,1.6,/,/,
CC(=O)Nc1ccc(S(=O)(=O)NNC(=O)c2ccc3c(c2)OCO3)cc1,-2,/,-3.7,/,/,
Cc1cccc(N2C(=O)C(O)=C(C(=O)c3cccs3)C2c2ccc(Cl)cc2)n1 (centres undefined),-2,/,1.0,-16%,/,
CCOCCCNC(=O)c1ccc(OC)c(OC2CCN(C(C)C)CC2)c1,-6,/,-1.3,/,/,
Nc1c(N(CCO)C(=O)COc2ccc(Cl)cc2)c(=O)[nH]c(=O)n1Cc1ccccc1,-1,-11,0.2,-7%,-21,
COc1cccc(/C=C2\Oc3ccc(O)cc3C2=O)c1O,1,/,-4.3,/,/,
COc1ccccc1CNC(=O)Cn1ccsc1=N,-13,/,-1.7,/,/,
O=C(c1ccccn1)N1CCN(C(=O)c2ccccn2)CC1,-3,-2,-1.4,-8%,8,
O=C(Cn1cc2c(n1)CCCCC2)Nc1c(F)c(F)cc(F)c1F,0,-5,0.0,-1%,-32,
Cc1cccc(CC2CC(=O)N(CCc3ccc4c(c3)OCO4)C2=O)c1 (centres undefined),-3,-17,10,4%,/,

# Additional structures follow.
SMILES,Mtb betalactam,Arbovirus inh,RecA intein inh,Mtb growth,YopH PTP inh,others
CCOC(=O)C1(Cc2cccc(F)c2)CCN(C(=O)C2CCOCC2)CC1,-7,2,1.6,2%,/,
CN(C)[C@@H](CO)c1nnc([C@H](CC(=O)O)NC(=O)C2CCNCC2)o1,-8,0,-3.0,-11%,/,
Cc1nc(C(=O)Nc2cccc(Cl)c2)nn1-c1cc(OC(C)C)c(Cl)cc1Cl,-1,-22,8.7,-1%,-21,
O=C(CSc1nc2nc[nH]c2c(=O)[nH]1)NC1CCCCC1,-5,0,-2.8,0%,-12,
Cc1cc(NC(=O)c2ccc(NC(=O)C(C)Oc3ccccc3)cc2)no1 (centres undefined),6,2,-0.2,0%,-55,
CC1=C(C(=O)OCc2ccccc2)C(c2ccc(C)o2)C2=C(CCCC2=O)N1 (centres undefined),-3,2,2.8,-1%,1,
Cc1ccc(NC(=O)COc2ccc(-n3cnnn3)cc2)cc1C,40,6,-1.7,58%,-6,
O=C(c1ccccc1F)N1CCc2ccccc21,-4,/,0.8,2%,-28,
CCOC(=O)C1=C(COC(=O)Cc2ccccc2F)NC(=O)NC1C (centres undefined),-6,/,4.8,/,/,
O=C(O)COCC(=O)NCc1nc(-c2ccc(C(F)(F)F)cc2)no1,-10,/,-0.6,-10%,/,
COc1ccccc1/C=N/NC(=O)C(C)Cn1cnc2ccccc21 (centres undefined),6,0,-4.4,-4%,-39,
Cc1cccc2cc(C(c3nnnn3CC3CCCO3)N3CCc4ccccc4C3)c(=O)[nH]c12 (centres undefined),0,-1,/,/,14,
O=C(NCCc1ccccc1)C1CCC(Cn2c(=O)c3ccccc3n(Cc3cccc(Cl)c3)c2=O)CC1 (centres undefined),17,/,-1.5,/,/,
CCNc1nc(NCC)n2c(SCC(=O)Nc3ccc(C)c(C)c3)nnc2n1,-11,/,-0.6,/,/,
CCN(CC)CCOC(=O)c1c(C)oc2ccc(O)cc12,-7,12,0.0,-1%,-51,
O=C(OCc1ccccc1)C1CCCN1C(=O)c1cccs1 (centres undefined),-12,15,0.6,-7%,3,
Cc1ccsc1/C=N/NC(=O)CNC(=O)c1ccc(S(=O)(=O)N(C)C)cc1,-3,0,-0.6,-1%,/,
CCCNC(=O)c1ccc(C)c(NC(=O)C2=C(C)OCCS2)c1,-9,/,-1.9,/,/,
C=CCOc1ccc(/C=C/C(=O)OCC(=O)NCCC2=CCCCC2)cc1,45,/,-1.2,/,/,
CN(CCNC(=O)C1CC(=O)N(C2CCCC2)C1)Cc1ccccc1 (centres undefined),-4,2,-1.7,0%,-28,Arbovirus inh repeat=-3
COc1cccc(N=C2SC(C(=O)Nc3ccccc3F)CC(=O)N2C)c1 (centres undefined),4,5,-1.6,7%,-48,
CC(C)C(OC(=O)CN1C(=O)COc2ccccc21)C(=O)NC1CCCC1 (centres undefined),-10,3,1.4,-6%,-17,
Cc1nc2cc(NC(=O)NC3CC3)ccc2n1C,3,-4,-0.4,-2%,/,
CC(=O)Cn1c2ccccc2n2nc(CCC(=O)O)c(=O)nc12,-3,-2,1.8,-10%,/,
CCn1ccc(C(=O)Nc2ccc(Cl)cn2)n1,-5,-3,0.1,0%,/,Arbovirus inh repeat=-1

# Going on with the list.
SMILES,Mtb betalactam,Arbovirus inh,RecA intein inh,Mtb growth,YopH PTP inh,others
CC1Cc2ccccc2N1C(=O)c1cnc2sccn2c1=O (centres undefined),-2,-5,1.6,-7%,-49,
CNC(=O)CSc1nnc(-c2ccco2)n1-c1cccc(OC)c1,-7,/,-2.9,/,/,
O=C(COc1ccc(S(=O)(=O)N2CCOCC2)cc1)Nc1ccc(Cl)c(C(F)(F)F)c1,0,-5,6.7,-3%,3,
CN(C)/C=N/c1[nH]ncc1C#N,-3,10,-5.1,0%,/,
CCN(CC)C(=O)C1CC(=O)OC1(C)C (centres undefined),6,-1,-0.1,-5%,-23,
c1ccc2cc(C3N4CCCN34)ccc2c1 (centres undefined),-7,10,-4.1,5%,/,
Cc1c(NC(=O)C2CC(c3cccc(Br)c3)=NO2)c(=O)n(-c2ccccc2)n1C (centres undefined),12,2,2.9,19%,/,
N=C1/C(=C\c2ccc(OC(=O)c3ccc(F)cc3)cc2)C(=O)N=C2SC(N3CCCC3)=NN12,-3,/,3.1,/,/,
Cc1ccc(Nc2nc(C)c3c(n2)CC(C)CC3=O)c(C)c1 (centres undefined),-9,/,0.9,19%,/,
C=CCNc1sc(C(=O)c2ccccc2)c(N)c1C#N,13,-4,-6.6,4%,17,
COC/C=C/C1=CC2=CC(=O)C(C)(OC(=O)c3cnc4ccccc4n3)C(=O)C2=CN1C1CC1 (centres undefined),-5,/,0.1,-16%,/,
O=C(NC1CCCC1)C(c1cccs1)N(Cc1ccco1)C(=O)c1csnn1 (centres undefined),15,-4,2.5,-4%,-28,
COc1ccc(OCc2cccc(C(=O)NN)c2)cc1,2,-12,1.9,-2%,-21,
CCOc1ccccc1C(=O)N(Cc1ccc(C)o1)C1CCS(=O)(=O)C1 (centres undefined),-6,/,0.8,/,/,
COc1cc(OC)nc(NC(=O)NS(=O)(=O)c2ccc(F)cc2)n1,-5,4,-0.3,-3%,/,
COc1cc(/C=N\NC(=O)CNC(=O)C(c2ccccc2)c2ccccc2)ccc1O,1,/,-0.4,-4%,/,
O=C(CSc1nc2[nH]ncc2c(=O)n1-c1ccccc1)N1CCCCCC1,-1,5,1.0,1%,/,
Cc1ccc2nc(NCCCNC(=O)c3cnccn3)c(C#N)cc2c1,8,-2,-5.0,1%,-46,
CC(=O)Nc1ccc(NC(=O)c2nc(S(=O)(=O)Cc3ccccc3)ncc2Cl)cc1,2,/,40*,/,/,
COC(=O)c1ccccc1NC(=O)CN1CCN(c2ccccn2)CC1,0,7,0.0,-9%,/,
O=C(Nc1cc([N+](=O)[O-])ccc1Cl)c1ccc2c(c1)OCO2,7,-11,-3.1,4%,/,
CC(=O)Nc1ccc(OCC(O)Cn2nc(C)c(Br)c2C)cc1 (centres undefined),-1,5,-2.7,6%,-11,
Cc1ccc(S(=O)(=O)N2CCC(C(=O)Nc3nnc(C4CCCC4)s3)CC2)cc1,13,1,3.4,-5%,-25,
CCOC(=O)N1CCN(C(=O)c2ccc(C)c(S(=O)(=O)N3CCCCC3)c2)CC1,7,/,1.5,/,/,
CC(=O)c1ccc(NC(=O)c2cc(C)no2)cc1,-2,/,-0.6,/,/,

# An excerpt from above in order of molar mass, descending.
SMILES,Mtb betalactam,Arbovirus inh,RecA intein inh,Mtb growth,YopH PTP inh,others
Cc1ccc(S(=O)(=O)N2CCC(C(=O)Nc3nnc(C4CCCC4)s3)CC2)cc1,13,1,3.4,-5%,-25,
COc1ccc(OCc2cccc(C(=O)NN)c2)cc1,2,-12,1.9,-2%,-21,
c1ccc2cc(C3N4CCCN34)ccc2c1 (centres undefined),-7,10,-4.1,5%,/,

# Further structures
SMILES,Mtb betalactam,Arbovirus inh,RecA intein inh,Mtb growth,YopH PTP inh,others
O=C(Nc1nc(-c2ccc(F)cc2)cs1)C1CCN(C(=O)c2ccc(F)cc2)CC1,-9,/,0.9,/,/,
O=C(Nc1ccnc(-c2cccnc2)n1)c1cccs1,4,-1,-0.6,-2%,/,
Cn1c(=O)oc2cc(S(=O)(=O)N3CCC(C(=O)NCC4COc5ccccc5O4)CC3)ccc21 (centres undefined),0,0,/,2%,-18,Arbovirus inh repeat=-2
CN(C)CCCOC(=O)c1ccccc1Cl,-6,10,-0.1,-13%,7,
O=C(CSCc1ccccc1)N1CCN(c2ccc(F)cc2)CC1,1,13,4.7,-16%,-26,
CN(Cc1ccccc1)C(=O)CN1C(=O)NC(C)(c2ccc(C(C)(C)C)cc2)C1=O (centres undefined),0,/,0.7,/,/,
Cc1ccc2nc(SCC(=O)Nc3ccc(C(N)=O)cc3)[nH]c2c1,-6,1,14,2%,/,
COc1ccc(-c2noc(C3CCCN(C(=O)c4ccc(C)cc4)C3)n2)cc1 (centres undefined),33,/,4.9,/,/,
COc1ccc(C(c2nnnn2C2CCCC2)N2CCN(C(=O)c3ccco3)CC2)cc1OC (centres undefined),2,/,-1.0,/,/,
Cc1ccc2[nH]c(O)c(N=NC(=O)c3ccc(NS(=O)(=O)c4cccs4)cc3)c2c1,0,/,2.1,32%,/,
O=C(C1CCC1)N1CCc2cc(S(=O)(=O)Nc3ccc4c(c3)OCCO4)ccc21,-4,-1,0.2,7%,-32,
CCOC(=O)c1c(NC(=S)Nc2ccccc2)sc2c1CCCCC2,3,6,-1.7,-6%,-47,
CC(=O)Nc1nc2c(c3c1c(=O)oc1ccccc13)CC(C)CC2 (centres undefined),/,0,-3.8,3%,-19,
CC(=O)OC1(c2ccccc2)CCN(C)CC1(C)C (centres undefined),-2,-5,1.5,6%,/,
Cc1cc(C)n(CCC(=O)N/N=C/c2c(O)ccc3ccccc23)n1,14,/,0.5,-8%,/,
COc1ccc(C2Nc3ccccc3C(=O)N2c2ccc(C)cc2)cc1Cn1cc([N+](=O)[O-])cn1 (centres undefined),4,-3,18,1%,-8,

# In the list so far, these have a CF3 group:
SMILES,Mtb betalactam,Arbovirus inh,RecA intein inh,Mtb growth,YopH PTP inh,others
COC(=O)c1cccc(C23CC4(C2)[C@H](CN(Cc2ccc(C(F)(F)F)cc2)[C@@H]4c2ccccc2)C3c2ccc(Cl)nc2)c1 (some centres undefined),0,/,4.4,4%,/,
O=C(O)COCC(=O)NCc1nc(-c2ccc(C(F)(F)F)cc2)no1,-10,/,-0.6,-10%,/,
O=C(COc1ccc(S(=O)(=O)N2CCOCC2)cc1)Nc1ccc(Cl)c(C(F)(F)F)c1,0,-5,6.7,-3%,3,
